High-throughput results: PubChem BioAssay, several laboratories
Sa RN4220 lethal = growth inhibition of S. aureus RN4220, primary screen, OD600. inhibition, % (concentration not given with the values). actives 0.33% (n = 330,000). AID 1259311, 2017. 16 h;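 active means z-score of -3 or lower and OD600 up to 0.18 on both plates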;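 further: plate controls were untreated cells for no effect and reference antibiotic for full effect; stock transfer was 100 nL into about 80 µL; one replicate is shown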
PrP 5UTR inh = inhibition of PrP 5' UTR reporter expression | actives 0.35% (n = 340,000) | cell-based PrP 5' UTR mRNA reporter, plate reader | inhibition, % (test concentration not listed) | AID 488862, 2010;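 active means every replicate at 50% or more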;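 further: 0 = median of the neutral control wells; tested in H4 reporter cells; numbers are from one replicate; inactives centre near -14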
BJeLR lethal = MLPCN primary cell-based screen for lethality selective to Ras in HRASV12 cells; actives 0.17% (n = 300,000); BJeLR (HRASV12) viability, CellTiter-Glo ATP luminescence, 48 h; reference of the scale not given here; AID 1554, 2009; inhibition, % (test concentration not listed);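 active means replicate mean above 50%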;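 further: 50 nL library stock added to about 25 µL; numbers are from one replicate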
Mtb hypoxia rep = PubChem AID 1159583. M. tuberculosis hypoxia-regulated fluorescent reporter, fluorescence. fluorescence inhibition, % (test concentration not listed). actives 0.1% (n = 300,000);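 active means 35 to 45% if threefold the growth effect, above 45% if 1.5-fold the growth effect; inactive means the rest, general growth blockers included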;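 further: wells of about 50 µL received 100 nL stock; 0% = vehicle wells and 100% = reference inhibitor wells; whole bacteria with a GFP reporter of the hypoxia response; strong numbers were not always called active; many hits fall short of the cut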
Autofluor counter = compound fluorescence in toxin protease inhibitor counterscreen; AID 624483; compound autofluorescence counterscreen, microsphere flow cytometry; active compounds read high; fluorescence intensity (no concentration beside the values); actives 3.1% (n = 360,000);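 active means at least 3 SD above the mean of all compounds, about 16000 in these data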;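 further: 100 nL of 1 mM stock went into each well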
ugtP null kill = growth inhibition of ugtP-null S. aureus, primary screen, RN4220 ugtP deletion, OD600; 16 h; some inactives read as strong as hits; AID 1259309, 2017; growth inhibition, % (no concentration beside the values); actives 0.54% (n = 330,000);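 active means z-score under -3 and OD600 up to 0.15 on both plates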;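 further: plate controls were untreated wells for no effect and antibiotic for full effect; wells of about 80 µL received 100 nL stock; the first replicate is given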
Mtb hypoxia rep growth = further read-out of Mtb hypoxia rep, marked with its call; growth inhibition, %; measured here: M. tuberculosis growth (absorbance);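 0% = vehicle and 100% = reference antibiotic; read after six days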
Numbers without * were called inactive; nt = no result given.

nr	SMILES	Sa RN4220 lethal	PrP 5UTR inh	BJeLR lethal	Mtb hypoxia rep	Mtb hypoxia rep growth	Autofluor counter	ugtP null kill
1	O=C(NCC1CCCO1)c1sc2cc(Cl)ccc2c1Cl (configuration not stated)	10	-65	-8	3	4	2010	3
2	COc1ccc(Cc2nnc(SCC(=O)Nc3ccccc3)[nH]c2=O)cc1	3.7	3	-10	4	-1	5384	-4
3	CC(=O)n1cc(N(C(=O)CCl)c2ccc([N+](=O)[O-])cc2)c2ccccc21	20	-16	2	11	18	nt	74
4	CN(N=Cc1cc(Cl)cc(Cl)c1O)C(=S)NC(C)(C)C	100*	nt	nt	13	8	nt	100*
5	N#CCC(=O)NN=Cc1cc([N+](=O)[O-])ccc1N1CCCC1	0.2	nt	nt	-5	-2	nt	1
6	N#Cc1ccc(/C=N/NC(=O)c2cccc(S(=O)(=O)N3CCOCC3)c2)cc1	nt	2	7	nt	nt	2236	nt
7	CCCCN(C(=O)CSc1nncn1-c1ccccc1)c1c(N)n(Cc2ccccc2)c(=O)[nH]c1=O	-0.9	-29	-4	-8	3	2249	2
8	CCCCNC(=S)NN=C1CCCCc2ccccc21	1.3	nt	nt	4	3	nt	66
9	CC1(C)CC(=O)C(CC(=O)NC2CCCc3ccccc32)C(=O)C1 (configuration not stated)	15	-35	13	16	5	4575	-2
10	O=C(O)c1ccccc1-c1ccccc1C(=O)Nc1ccc2c(c1)C(=O)c1ccccc1-2	4.0	-39	nt	nt	nt	3516	-1
11	N#Cc1nc(Cc2ccccc2)oc1NCCCn1ccnc1	5.8	-14	-5	3	0	8104	2
12	Cc1ccc(C2=NOC(C)(c3nnc(-c4ccc(F)cc4)o3)C2)cc1 (configuration not stated)	4.0	-26	7	16	5	3903	6
13	CC1Cc2ccccc2N1C(=O)CSc1nnnn1-c1ccc2c(c1)OCCO2 (configuration not stated)	2.7	-8	-8	7	10	8593	5
14	COc1cc(NC(=O)COC(=O)c2[nH]c(C)c(C(C)=O)c2C)cc(OC)c1	2.2	-5	nt	16	8	4141	5
15	O=C1CCC([N+](=O)[O-])C(c2cccc(Cl)c2Cl)N1 (configuration not stated)	0.4	-25	-1	nt	nt	3648	8
16	Cc1cc(NS(=O)(=O)c2ccc(NC(=O)c3ccco3)cc2)no1	-17	-26	11	17	24	3125	-2
17	CCN1C(=O)C(CC(=O)Nc2ccccc2)S/C1=N\c1ccccn1 (configuration not stated)	nt	-54	1	nt	nt	4238	nt
18	O=C(CSc1nnc(-c2ccc(S(=O)(=O)N3CCCC3)cc2)o1)NCc1ccco1	2.7	12	-2	1	6	21711*	2
19	O=C(N/N=C/c1c(O)n(C2CCCCC2)c(=S)[nH]c1=O)c1ccccc1	5.1	-2	0	-11	8	5112	-7
20	COc1cccc(OC)c1C(=O)NN1CCCCC1	1.7	nt	-8	4	9	9900	2
21	O=[N+]([O-])c1ccc(Nc2ccc(F)cc2)cc1	-1.4	-24	-1	-5	3	4249	-1
22	CN1C(=O)OC(C)(C)C1=O	nt	5	-13	nt	nt	5888	nt
23	Cc1ccc(/C=N/NC(=O)CNC(=O)c2ccc(S(=O)(=O)N3CCCC3)cc2)o1	nt	-11	1	nt	nt	2434	nt
24	COc1ccccc1NC(=O)N1CCC(C(=O)c2ccc(F)cc2)CC1	2.9	-18	1	7	11	10941	6
25	NC(=O)N/N=C1\CCS(=O)(=O)c2ccc(F)cc21	nt	-2	-4	nt	nt	3657	nt
26	CCOc1ccc(C(C)NC(=S)NC2CCCCC2)cc1 (configuration not stated)	3.4	-17	-19	11	11	3330	7
27	COc1ccc(OC(C)C(=O)N(C)Cc2nc(-c3ccc(C)cc3)no2)cc1 (configuration not stated)	2.1	-8	-6	-8	11	3590	10
28	Cc1ccc(C)n1-c1sc2c(c1C(=O)O)CCCC2	11	-18	8	18	4	2363	0
29	Cc1ccc(/C=C/C(=O)NCCCN2CCN(CCCNC(=O)/C=C/c3ccc(C)cc3)CC2)cc1	3.3	-12	-6	14	8	2118	2
30	O=C(NN=Cc1ccccc1F)c1ccc(-c2ccccc2)cc1	1.5	nt	nt	2	-2	nt	5

Gathered by group, the compounds so far containing a thiophene ring, fused or not
nr	SMILES	Sa RN4220 lethal	PrP 5UTR inh	BJeLR lethal	Mtb hypoxia rep	Mtb hypoxia rep growth	Autofluor counter	ugtP null kill
1	O=C(NCC1CCCO1)c1sc2cc(Cl)ccc2c1Cl (configuration not stated)	10	-65	-8	3	4	2010	3
28	Cc1ccc(C)n1-c1sc2c(c1C(=O)O)CCCC2	11	-18	8	18	4	2363	0

Later entries.
nr	SMILES	Sa RN4220 lethal	PrP 5UTR inh	BJeLR lethal	Mtb hypoxia rep	Mtb hypoxia rep growth	Autofluor counter	ugtP null kill
31	COc1ccc(Nc2nc(N)nc(COc3ccc(OC)cc3)n2)cc1	6.9	-25	13	9	11	4396	11
32	CC12CCC(C(=O)N(CSC(=S)NN=Cc3ccccc3Cl)C1=O)C2(C)C (configuration not stated)	6.8	nt	nt	8	13	nt	0
33	O=c1c2ccccc2nc(-c2ccccc2)n1-c1cccc(O)c1	8.7	-22	-1	-12	1	3943	12
34	C[n+]1cccc(CNC(=O)/C=N/O)c1	nt	-12	0	nt	nt	3049	nt
35	CCn1cc(C(=O)N2CCN(c3ccccc3OC)CC2)c2cc(OC)c(OC)cc2c1=O	5.0	-19	6	3	-1	4272	12
36	COc1ccc(CN(C)C(=O)C23CC4CC(CC(C4)C2)C3)c(OC)c1	3.5	-12	6	6	1	3308	26
37	CN(C)c1cc(C(F)(F)F)nc(-c2ccccn2)n1	6.2	-7	1	3	0	16157*	15
38	CNS(=O)(=O)c1ccc2nc(NC(=O)c3ccc(N4C(=O)CCC4=O)cc3)sc2c1	8.0	-17	4	7	-2	4380	-10
39	COc1ccc(CCn2nnnc2C(c2ccccc2)N2CCN(C)CC2)cc1OC (configuration not stated)	1.1	0	-14	6	12	4433	0
40	Cc1cccc(C)c1NC(=O)CN(C)C(=O)CSC(=S)N1CCCC1	2.4	5	-5	4	-7	nt	2
41	CCCCOc1ccc(C2(C(=O)O)CCCC2)cc1	2.9	-19	nt	nt	nt	4734	3
42	c1ccc(SCc2nc(-c3ccncc3)no2)cc1	7.8	-85	3	6	-3	9833	6
43	C/C(=N\O)C(C)(C)Nc1ccccc1F	nt	-30	-4	nt	nt	4022	nt
44	CCc1nc(N2CCCCC2)c2oc3ccccc3c2n1	16	-5	0	2	12	23515*	-24
45	COCCOC(=O)c1[nH]c2c(c1C)C(=O)C(C(=O)OC)C(C)C2 (configuration not stated)	4.9	-39	-3	nt	nt	4431	11
46	Clc1ccc(OCc2nc(-c3ccccn3)n[nH]2)cc1	0.4	0	-7	2	10	19968*	-18
47	COc1ccc(CCNC(=O)Cc2ccccc2)cc1OC	5.0	-7	0	3	4	3020	14
48	O=C(O)CCC(=O)N1CCc2cc(S(=O)(=O)N(CCc3ccccc3)Cc3ccccc3)ccc21	27	-7	11	6	2	8543	10
49	S=C(Nc1ccc2nc(-c3ccccn3)c(-c3ccccn3)nc2c1)N1CCOCC1	-0.6	-23	4	0	-6	2703	4
50	O=C1CN(C(=O)c2cc([N+](=O)[O-])ccc2Cl)C(c2ccc(F)cc2)c2cc(F)ccc2N1 (configuration not stated)	6.0	-18	-10	2	4	2475	-5
51	CCO[C@H]1OC(C(=O)NCc2ccccc2)=C[C@@H](c2cn(C(C)=O)c3ccccc23)[C@@H]1CCCO	nt	-4	-10	nt	nt	3710	nt
52	CC(C)CCNC(=O)C1CCCN(S(=O)(=O)c2ccc(-n3cnnn3)cc2)C1 (configuration not stated)	2.3	-4	-7	-6	-2	2742	-3
53	O=C1CC(NS(=O)(=O)c2cccs2)CN1c1ccc(Cl)cc1 (configuration not stated)	7.3	-14	1	1	-3	4373	18
54	O=C(Nc1nnc(SCC(=O)N2CCCCC2)s1)c1c(F)cccc1F	0.8	0	-14	4	-2	4408	2
55	Cc1cc(C)c2c(n1)sc1c(N3CCN(CCO)CC3)ncnc12	5.2	11	1	20	8	17147*	8
56	O=C1CCc2cc(S(=O)(=O)N3CCN(C(=O)c4ccco4)CC3)ccc2N1	4.7	-12	-11	11	4	14899	11
57	Cc1cc([N+](=O)[O-])cnc1N1CCOCC1	-0.7	-3	-4	13	3	2016	7
58	CC(OC(=O)c1ccc2c(=O)n3c(nc2c1)CCCCC3)C(=O)Nc1ncc(Cl)cc1Cl (configuration not stated)	4.0	-10	-14	10	0	1990	8
59	Cc1n[nH]c(C)c1C(=O)CC1(O)C(=O)N(CCc2ccccc2)c2ccc(Cl)cc21 (configuration not stated)	5.9	-16	-12	nt	nt	4829	-4
60	COc1ccc(NC(=O)C(=O)Nc2cccc3cccnc23)c(OC)c1	3.3	-17	-4	2	-4	nt	0
61	O=C(O)/C=C/c1ccc(OCCCF)cc1	5.8	-28	0	13	4	4933	8
62	O=C(Cc1ccc(Cl)cc1)NN=Cc1ccccc1	-1.4	nt	nt	-7	-5	nt	9
63	CC(NC(=O)COc1ccc(Oc2ccccc2)cc1)C(=O)O (configuration not stated)	2.1	-18	-6	7	8	6612	-1
64	COC(=O)C1=C(c2cc3ccccc3s2)CC2CCC1N2C(=O)NC(C)C (configuration not stated)	3.1	nt	nt	6	9	nt	-6
65	CC1(c2ccccc2)NC(=O)N(NC(=O)CSc2n[nH]c(N)n2)C1=O (configuration not stated)	1.3	-13	3	4	1	3382	9
66	COc1cc2c(cc1OC)C(C(=O)Nc1ccccc1N1CCN(C)CC1)C1c3ccccc3CCN1C2=O (configuration not stated)	0.3	-12	7	13	6	3194	-1
67	Cc1ccc(/C=N/NC(=O)c2cccc3ccccc23)o1	nt	-25	-4	nt	nt	3651	nt
68	Cc1cc(Br)ccc1SCC(=O)OCC(=O)c1c(N)n(C)c(=O)n(C)c1=O	1.9	-23	2	7	4	4763	7
69	Cc1cc(C(=O)N2CCN(Cc3ccc4c(c3)OCO4)CC2)cs1	3.9	-22	6	16	11	25075*	8
70	CC(=O)Nc1ccc2nc(NC(=O)COc3cccc(C)c3)sc2c1	14	-21	1	-5	8	4732	6
71	COc1cc2c(cc1OC)C1=NC(=O)CN1C(SCc1ccccc1)=N2	0.3	-5	nt	nt	nt	3236	1
72	O=S(=O)(c1ccc2c(c1)CCN2)N1CCOCC1	6.5	-16	nt	11	10	nt	7
73	COc1ccc(C2(C(=O)Nc3c(C)n(C)n(-c4ccccc4)c3=O)CCCC2)cc1OC	1.1	-20	4	nt	nt	2559	3
74	COc1ccc(-c2csc(NC(C)=O)n2)cc1OC	2.8	28	2	11	5	8683	27
75	Cc1cccc(C(=O)N/C(=C\c2ccco2)C(=O)N2CCCCCC2)c1	2.7	-11	-8	3	7	5012	0
76	CN(CCOc1ccc(Cl)cc1)C(=O)c1cccc(S(=O)(=O)N2CCN(c3ccccc3)CC2)c1	6.6	-9	nt	10	2	4051	-8
77	CCOC(=O)c1csc(N/N=C2\CCc3ccccc32)n1	nt	-23	0	nt	nt	3826	nt
78	Cc1nnc(SCC(=O)Nc2ccc3c4c(cccc24)CC3)n1C	-6.3	-6	4	9	16	3731	-3
79	COc1ccc(/C=N/NC(=O)CCCCCNC(=O)c2ccccc2)cc1	nt	1	-7	nt	nt	2449	nt
80	CC12CCC(=O)N1C(C(=O)Nc1nc(-c3ccc(F)c(F)c3)cs1)CS2 (configuration not stated)	3.2	-4	0	2	2	11194	9

Following part:
nr	SMILES	Sa RN4220 lethal	PrP 5UTR inh	BJeLR lethal	Mtb hypoxia rep	Mtb hypoxia rep growth	Autofluor counter	ugtP null kill
81	CC(C)CC(=O)Nc1nnc(S(=O)(=O)N2CCCCCC2)s1	3.1	-11	9	7	12	4885	-2
82	COc1cc(-c2nnc(SCC3(c4ccc(Br)cc4)OCCO3)o2)cc(OC)c1OC	5.5	-57	21	6	6	2581	21
83	CC(=O)N/C(=C\c1ccccc1)C(=O)OCc1ccccc1	-0.3	72*	-5	14	-1	6345	-1
84	CCCN1CCN(C2CCCCC2NS(=O)(=O)c2ccccc2)CC1 (configuration not stated)	-0.9	0	5	-9	-7	5659	-5
85	CC(C)(C)OC(=O)CC[C@@H](C(=O)N1CCN(C(=O)OC(C)(C)C)CC1)n1cc(C(CO)NC(=O)OC(C)(C)C)nn1 (some centres not stated)	nt	-8	-7	nt	nt	3663	nt
86	CCNc1ccc(C(=O)OCC(=O)N(Cc2ccccc2)C(C)(C)C)cc1[N+](=O)[O-]	6.2	-18	-5	2	-1	2604	-9
